High-throughput results (PubChem BioAssay)
FGF22 binding: binders of human FGF22 protein, primary screen, FGF22 synaptogenesis inhibitor project, biophysical, thermal shift, single point; calls only at 9.99 µM; Fibroblast growth factor 22 (Homo sapiens), Q9HCT0; recombinant FGF22 thermal shift, SYPRO orange fluorescence; percent of sucrose octasulfate shift, DMSO zero; 1.5% of 340,000 active;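 active = melting point raised past a set limit in the mean and every replicate; three in four hits are not shown here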
Target sequence (Q9HCT0 whole entry, looked up): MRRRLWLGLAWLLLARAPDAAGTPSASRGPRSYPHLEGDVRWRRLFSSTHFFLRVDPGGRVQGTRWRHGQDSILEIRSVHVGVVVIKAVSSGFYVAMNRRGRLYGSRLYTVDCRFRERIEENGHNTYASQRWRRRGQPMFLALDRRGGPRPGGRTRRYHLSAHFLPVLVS
AF4-AF9 inh: inhibitors of AF4 peptide binding to AF9, primary screen, biochemical, AlphaScreen, biotin-AF4 peptide, FLAG-AF9, single point | Protein AF-9 (Homo sapiens), P42568 | inhibition, % at 10 µM | 0.47% of 350,000 active | AID 651704, 2012;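 active = every replicate reaching a set inhibition limit, whatever the replicate mean, cut at about 25% in these data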;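 note: 0% = plate neutral control median and 100% = total signal loss; the record names both 10 and 1 µM as test concentration; the first replicate is given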
Target sequence (P42568 whole entry, looked up): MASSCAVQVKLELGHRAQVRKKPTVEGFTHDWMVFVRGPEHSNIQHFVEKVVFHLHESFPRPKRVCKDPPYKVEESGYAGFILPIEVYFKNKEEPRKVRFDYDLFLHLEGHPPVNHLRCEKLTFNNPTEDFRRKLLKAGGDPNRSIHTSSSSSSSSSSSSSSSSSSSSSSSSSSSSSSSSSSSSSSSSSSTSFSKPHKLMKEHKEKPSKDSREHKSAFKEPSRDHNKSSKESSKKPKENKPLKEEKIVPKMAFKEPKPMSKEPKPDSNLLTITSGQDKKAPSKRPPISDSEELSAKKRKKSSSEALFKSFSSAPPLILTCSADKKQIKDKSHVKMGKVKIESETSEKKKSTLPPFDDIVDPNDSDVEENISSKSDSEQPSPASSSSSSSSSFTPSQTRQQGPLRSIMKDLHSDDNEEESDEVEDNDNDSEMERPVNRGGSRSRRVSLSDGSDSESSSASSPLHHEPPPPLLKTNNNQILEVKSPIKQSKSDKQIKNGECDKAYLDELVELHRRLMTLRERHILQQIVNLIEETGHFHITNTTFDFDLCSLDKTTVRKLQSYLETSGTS
rRNA inh HTS: reduced GFP signal of wild-type E. coli, primary screen, bacterial rRNA inhibitor project, GFP/RFP fluorescence, OD600, single point; AID 720706, 2013; GFP signal change (wild-type ribosome), % (test concentration not listed); E. coli WT GFP vs humanized-ribosome RFP mutants, 24 h; stronger effect = lower value; DMSO median 0, no signal -100; 1.6% of 350,000 active;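 active = significant combined selectivity score with lowered wild-type GFP, culture density cut under 30%, mutant RFP and density less affected; inactive = any of these conditions unmet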; note: one replicate is shown; some compounds called inactive have numbers as strong as hits
rRNA inh HTS OD600: second read-out of rRNA inh HTS, no call of its own (marks repeat the call); OD600 change, %; measured here: OD600 growth;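 optical density of the mix in the first replicate; 0 = DMSO median and -100 = no signal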
rRNA inh HTS RFP: further read-out of rRNA inh HTS, marked with its call; RFP signal change, %; measured here: RFP humanized mutant strains;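 first replicate; 0 = DMSO median and -100 = no signal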
* marks the source's active call; other numbers are inactive results; i = inactive; · = no result given; & = joins results of further samples. The list is partial; rates above refer to the full screens.

SMILES	FGF22 binding	AF4-AF9 inh	rRNA inh HTS	rRNA inh HTS OD600	rRNA inh HTS RFP
C[C@H]1CN([C@@H](C)CO)C(=O)c2cc(NC(=O)CCC(F)(F)F)ccc2O[C@@H]1CN(C)Cc1ccc(-c2ccccc2)cc1	i	5.5	-2	-7	10
C/C=C/c1cnc2c(c1)C(=O)N([C@H](C)CO)C[C@@H](C)[C@@H](CN(C)Cc1ccncc1)O2	i	-5.4	1	-3	-4.3
C[C@H](CO)N1C[C@H](C)[C@@H](CN(C)C(=O)Nc2cccc(Oc3ccccn3)c2)OCc2cn(nn2)CCCC1=O	i	1.0&-5.2	5&-6	-4&8	2.0&-4.3
COCC(=O)Nc1ccc2c(c1)[C@H]1C[C@@H](CC(=O)NCc3ccc(-c4ccccc4)cc3)O[C@H](CO)[C@H]1O2	i	-0.2	-10	0	6.4
CC(=O)c1cccc(NC(=O)c2cccc3c(-c4cccc(C(N)=O)c4)coc23)c1	i	-5.2	-8	-12	1.1
CCNC(=O)c1cc2c(c(-c3cccc(-c4cccnc4)c3)n1)[C@H](CCO)N(S(C)(=O)=O)C2	i	1.3&0.1	-6&20	-9&4	-2.7&2.7
CC(C)NC(=O)Nc1ccc2c(c1)CC(=O)N([C@@H](C)CO)C[C@H](C)[C@@H](CN(C)C(=O)Nc1ccccc1)O2	i	-1.3	4	12	0.9
C#CCNC(=O)C[C@@H]1C[C@@]2(C(=O)OC)CCCCC=C2N(Cc2ccccc2)C1=O	i	1.5	0	1	0.9
CC(C)CC#Cc1ccc2c(c1)O[C@H](CN(C)Cc1ccccn1)[C@@H](C)CN([C@H](C)CO)S2(=O)=O	i	3.4	-16	-37	8.6
Cc1noc(C)c1S(=O)(=O)Nc1ccc2c(c1)C(=O)N([C@H](C)CO)C[C@H](C)[C@H](CN(C)S(=O)(=O)c1ccccc1)OCCCC[C@H](C)O2	i	3.2	0	-5	0.9
C/C=C/c1ccc([C@@H]2[C@@H](CO)N(C(=O)C3CCOCC3)C23CN(C(=O)NC(C)C)C3)cc1	i	-2.3	4	5	-0.8
COc1ccccc1C(C(=O)c1ccccc1)c1ccc(O)cc1 (centres undefined)	i	1.4	-56	-81	-19
CC(C)NC(=O)Nc1ccc2c(c1)CC(=O)N([C@H](C)CO)C[C@@H](C)[C@H](CN(C)Cc1ccc(C(F)(F)F)cc1)O2	i	-0.2	5	2	3.6
COc1ccc(S(=O)(=O)N2C[C@@H](O)COC[C@H]3O[C@@H](CC(=O)N[C@H]4CCN(Cc5ccccc5)C4)CC[C@@H]32)cc1	i	7.0	i	·	·
CO[C@@H]1CN(C)C(=O)c2cc(NS(=O)(=O)c3cn(C)cn3)ccc2OC[C@@H](C)N(CCC(F)(F)F)C[C@@H]1C	i	-11	0	0	-0.5
C#CCn1cc2c(c1-c1ccccc1)c(=O)n(C)c(=O)n2C	i	2.7	7	-2	0.1
C[C@@H]1CN([C@H](C)CO)C(=O)c2cccc(NS(C)(=O)=O)c2O[C@@H]1CN(C)S(=O)(=O)c1cn(C)cn1	i	0.1	5	11	-1.4
C[C@H]1CN([C@@H](C)CO)C(=O)c2c(c3ccccc3n2C)-c2ccccc2CO[C@H]1CN(C)Cc1cccnc1	i	-5.4	-11	-23	15
CC=Cc1ccc2n(c1=O)C[C@H]1[C@H](CO)[C@@H](C(=O)NC3Cc4ccccc4C3)[C@@H]2N1C(C)=O (mixture of isomers)	i	-5.4	0	5	1.5
CO[C@H](CN(C)Cc1cc(F)ccc1F)[C@@H](C)CN([C@@H](C)CO)S(=O)(=O)c1ccc(F)cc1	i	-1.6	-1	3	3.0
C[C@@H]1CN([C@@H](C)CO)C(=O)c2cc(NC(=O)CCC(F)(F)F)ccc2O[C@@H](C)CCCCO[C@@H]1CN(C)C(=O)Nc1ccccc1	i	-2.1	0	2	-0.5
COc1ccc(NC(=O)C2c3ccccc3OCC(=O)N2CCc2ccccc2)cc1 (centres undefined)	i	3.2	-4	-10	7.1
Cc1ccc(NC(=S)/C(C#N)=C2/Nc3ccccc3S2)cc1	i	7.7	-30	-76	-16
C[C@H](NC(=O)C[C@H]1CC[C@H](NC(=O)CN2CCOCC2)[C@@H](CO)O1)c1ccccc1	i	-1.5	1	6	0.7
CC(C)COC(=O)N(C)C[C@@H]1OCc2cnnn2CCCC(=O)N([C@@H](C)CO)C[C@H]1C	i	-0.8&0.2&1.0	17	10	1.7
CCCCN1CC(C)(C)[C@H](CC(=O)NC)C1=O	i	-1.7	8	14	-1.5
CC(C)NC(=O)N(C)C[C@@H]1Oc2ncc(C#CC3(O)CCCC3)cc2C(=O)N([C@H](C)CO)C[C@H]1C	i	-1.9	1	-4	-0.1
CCCNC(=O)N1C[C@H](O)COC[C@H]2O[C@@H](CC(=O)N3CCC(Cc4ccccc4)CC3)CC[C@@H]21	i	-3.3	5	5	-0.5
Cc1ccc(-c2cnc3c(c2)C(=O)N([C@@H](C)CO)C[C@@H](C)[C@H](CN(C)C(=O)c2cccnc2)O3)cc1	i	-0.8	-5	-2	2.8
COc1ccc(S(=O)(=O)Nc2ccc3c(c2)CC(=O)N([C@@H](C)CO)C[C@@H](C)[C@@H](CN(C)Cc2ccc(C(=O)O)cc2)O3)cc1	i	-4.4	-4	-6	-0.2
CCCCn1nnnc1C(c1ccccc1)N1CCN(c2ccc(C)cc2)CC1 (centres undefined)	i	1.8	5	4	3.5
C[C@H]1CN([C@@H](C)CO)C(=O)Cc2cc(NS(=O)(=O)c3ccc(F)cc3)ccc2O[C@H]1CN(C)Cc1ccc(C(=O)Nc2ccccc2N)cc1	i	2.6	4	-1	3.6
O=C1NC[C@@H](CCCCN2C[C@H](Cc3ccccc3)N(Cc3ccccc3)C(=O)C2=O)N(CCc2ccccc2)C1=O	i	0.5	-20	-31	0.4
NC(=O)c1ncn([C@@H]2O[C@H](CNCc3ccccc3C#Cc3ccccc3)[C@@H](O)[C@H]2O)n1	i	10	9	17	5.9
CCOC(=O)[C@]12CCCC=C1N(Cc1ccco1)C(=O)[C@H](CC(=O)N1CCN(C(=O)c3ccco3)CC1)C2	i	-1.6	-3	10	-7.1
N#Cc1ccc2c(=O)n(-c3ccccc3)sc2c1	i	-10	5	-2	-3.2
Cc1noc(C)c1NC(=O)Nc1ccc2c(c1)CC(=O)N([C@H](C)CO)C[C@@H](C)[C@@H](CN(C)CC1CCCCC1)O2	i	-1.5	4	4	-0.5
C[C@@H]1CN([C@H](C)CO)C(=O)c2cc(Br)cnc2O[C@H]1CN(C)C(=O)c1ccccn1	i	-2.6	1	0	-2.5
O=C(NC(c1ccc(-c2ccccc2)cc1)c1cnccn1)C1CCN(Cc2ccc(Cl)c(Cl)c2)CC1 (centres undefined)	i	0.7	-1	-22	47
COc1ccc2c3c(n(C)c2c1)[C@H](CO)NCC31CCN(C(=O)c2ccc(F)cc2)CC1	i	1.4	-2	3	1.3

Record cards, from the list above. Order of values: FGF22 binding | AF4-AF9 inh | rRNA inh HTS | rRNA inh HTS OD600 | rRNA inh HTS RFP
Listed for `CC(C)NC(=O)N(C)C[C@@H]1Oc2ncc(C#CC3(O)CCCC3)cc2C(=O)N([C@H](C)CO)C[C@H]1C` : i | -1.9 | 1 | -4 | -0.1
Listed for `CC(C)NC(=O)Nc1ccc2c(c1)CC(=O)N([C@H](C)CO)C[C@@H](C)[C@H](CN(C)Cc1ccc(C(F)(F)F)cc1)O2` : i | -0.2 | 5 | 2 | 3.6
Listed for `CC(C)CC#Cc1ccc2c(c1)O[C@H](CN(C)Cc1ccccn1)[C@@H](C)CN([C@H](C)CO)S2(=O)=O` : i | 3.4 | -16 | -37 | 8.6
Listed for `O=C(NC(c1ccc(-c2ccccc2)cc1)c1cnccn1)C1CCN(Cc2ccc(Cl)c(Cl)c2)CC1` (centres undefined) : i | 0.7 | -1 | -22 | 47

Returning to the listing with the two entries that preceded the break.
SMILES	FGF22 binding	AF4-AF9 inh	rRNA inh HTS	rRNA inh HTS OD600	rRNA inh HTS RFP
O=C(NC(c1ccc(-c2ccccc2)cc1)c1cnccn1)C1CCN(Cc2ccc(Cl)c(Cl)c2)CC1 (centres undefined)	i	0.7	-1	-22	47
COc1ccc2c3c(n(C)c2c1)[C@H](CO)NCC31CCN(C(=O)c2ccc(F)cc2)CC1	i	1.4	-2	3	1.3
COc1ccc(-c2cc3nc(NCc4ccc(C)cc4C)n(C)c(=O)c3s2)cc1OC	i	-2.6	4	1	-0.1
C[C@@H]1CN([C@@H](C)CO)C(=O)c2cc(NC(=O)Nc3ccc(F)cc3)ccc2O[C@@H](C)CCCCO[C@H]1CN(C)S(=O)(=O)c1ccccc1	i	-1.4	6	0	-3.5
COc1ccc(NC(=O)N(C)C[C@@H]2OCCCC[C@@H](C)Oc3ccc(NS(=O)(=O)c4ccc(F)cc4)cc3C(=O)N([C@H](C)CO)C[C@@H]2C)cc1	i	-0.2	1	2	0.4
CO[C@@H]1CN(C)C(=O)c2ccc(NC(=O)C3CC3)cc2OC[C@H](C)N(C(=O)CN(C)C)C[C@H]1C	i	-0.2	0	5	-0.6
C[C@H](CO)N1C[C@H](C)[C@H](CN(C)C(=O)Nc2ccc(F)cc2)OCc2ccccc2-c2c(n(C)c3ccccc23)C1=O	i	-1.8&1.3	4	-2	-0.1
C[C@H](CO)N1C[C@H](C)[C@H](CN(C)C(=O)c2ccccn2)Oc2cc(C#Cc3ccc(F)cc3)ccc2S1(=O)=O	i	2.6&-1.6&0.6	-15&1	-27&-1	-3.2&5.3
CCOC(=O)CNC(=O)CSc1nc(C(C)C)nc2c1cnn2-c1ccccc1	i	-1.5	4	10	-3.8
C[C@@H]1CN([C@@H](C)CO)S(=O)(=O)c2ccc(C#CCN(C)C)cc2O[C@H]1CN(C)C(=O)CC1CC1	i	1.9	1	13	-5.5
COc1ccc2c3c(n(C)c2c1)[C@@H](CO)N(Cc1nccs1)CC31CCN(C)CC1	i	1.1	3	0	0.0
C[C@@H]1CN([C@H](C)CO)C(=O)c2cc(C#Cc3ccccc3F)cnc2O[C@H]1CN(C)C	i	13	5	3	2.1
O=C(C(=O)N1CCC(Cc2ccccc2)CC1)c1cccs1	i	1.4	-30	-40	-10
C[C@H]1CN([C@@H](C)CO)C(=O)Cc2cc(NC(=O)Nc3ccc(F)cc3)ccc2O[C@@H]1CN(C)S(=O)(=O)c1ccc(F)cc1	i	-0.9	-4	-10	2.1
O=C(NC[C@@H]1N[C@@H](CO)[C@@H]1c1ccc(-c2ccccc2F)cc1)c1ccccn1	i	0.3	-8	-9	8.0
C[C@@H]1CCCCO[C@H](CN(C)C(=O)c2ccncc2)[C@@H](C)CN([C@H](C)CO)C(=O)c2cc(NC(=O)CCCN(C)C)ccc2O1	i	-2.4	1	6	-1.6
COc1ccc(OC)c(NC(=O)CSc2nc3[nH]c(=O)[nH]c(=O)c3s2)c1	i	12	-4	13	5.0
COCC(=O)N1CC2(CCN(Cc3ccccc3)CC2)c2c([nH]c3cc(OC)ccc23)[C@H]1CO	i	1.4	3	8	-3.1
Cc1noc(C)c1S(=O)(=O)Nc1ccc2c(c1)C(=O)N([C@H](C)CO)C[C@@H](C)[C@H](CN(C)C(=O)NC(C)C)O2	i	-8.4	2	-1	-1.5
CCC(=O)N1C[C@@H](C)[C@@H](OC)CN(C)C(=O)c2ccc(NC(=O)c3ccc(F)cc3)cc2OC[C@H]1C	i	-1.1	-1	3	2.3
O=C(C[C@H]1CC[C@@H]2[C@H](COC[C@H](O)CN2C(=O)c2ccccc2)O1)N1CCc2ccccc2C1	i	-3.5	0	-2	2.9
CCOCCCNC(=O)Cn1nc(-c2ccc(OC)c(OC)c2)ccc1=O	i	-0.2	2	10	-3.4
COc1ccc(NC(=O)Nc2ccc3c(c2)CC(=O)N([C@@H](C)CO)C[C@@H](C)[C@@H](CN(C)C(=O)Nc2ccc(F)cc2)O3)cc1	i	-1.2	-1	3	-3.5
Fc1cccc(Cc2c(-c3cccc(Cl)c3)nc3c(Cl)cc(C(F)(F)F)cn23)c1	·	-0.3	0	12	-2.9
C[C@H]1CN([C@@H](C)CO)S(=O)(=O)c2ccc(-c3cccc(C(=O)N(C)C)c3)cc2O[C@@H]1CN(C)Cc1ccc2c(c1)OCO2	i	2.6	-5	-15	0.8
C[C@H](CO)N1C[C@H](C)[C@H](CN(C)S(C)(=O)=O)OCCCC[C@H](C)Oc2ccc(NC(=O)Nc3ccc(C(F)(F)F)cc3)cc2C1=O	i	-0.9	2	1	0.3
CCCNC(=O)N1CC2(CCN(CC3CCCC3)CC2)c2c([nH]c3cc(OC)ccc23)[C@@H]1CO	i	1.7	4	10	-0.7
COc1cccc(NC(=O)N(C)C[C@H]2Oc3ncc(C#Cc4ccc(F)cc4)cc3C(=O)N([C@H](C)CO)C[C@H]2C)c1	i	-1.5	2	17	2.7
O=C(C[C@H]1C[C@H]2c3cc(NC(=O)C4CCC4)ccc3O[C@H]2[C@H](CO)O1)NCc1ccccc1	i	-1.1	0	-3	0.6
